Screening data as filed in PubChem.
RGS16-Gao HTS – RGS16-Galphao interaction regulator (human) | bead-based flow cytometry RGS16-Galphao binding, fluorescence; actives lie on both sides | binding response (% of control), % at 10 µM | 220,000 compounds, 0.38% hits | AID 1441;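 active = below 25% or above 175%, edge rows of some plates excepted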;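 also: Galphao activated by GDP with aluminum fluoride before binding; 100% = wells without compound and 0% = beads without RGS; some results beyond the cut were filed as inactive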
Insulin prom inh – TRM-6 insulin promoter activity inhibition; TRM-6 cells (human fetal islet line), insulin promoter-eGFP reporter, imaging; reporter expression induced with tamoxifen; inhibition, % at 2 µM; 130,000 compounds, 0.9% hits; AID 1273;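 active = inhibition above the mean plus 3 SD, with well images judged a real hit on visual review, cut at about 60% in these data, passing the limit was not always enough; inconclusive = inhibition over the cutoff but images rejected on review; inactive = inhibition not above the cutoff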
HSV augment – HSV replication enhancement; 220,000 compounds, 0.005% hits; HSV replication augmentation in cells, fold increase; maximum fold increase;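 active = peak rise of 1.5-fold or more in the series; inconclusive = self-fluorescent or not available for retest; tested in PC3 cells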;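 also: first round at 10 µM; read as green reporter fluorescence; hits show the peak of a series up to 25 µM; 1 = signal of infected wells without compound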
GALR2 agonist – GALR2 (human) receptor agonism; O43603; GALR2-expressing cells, agonist activation read-out; 140,000 compounds, 0.48% hits; AID 803; activation, %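 (tested at 5 µM)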;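 active = above mean plus 3 SD of all compounds, about 5% in these data, not always enough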;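 also: 0% = vehicle buffer wells and 100% = reference agonist at full effect; tested in CHO reporter cells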
PKD1 inh – blocks activity of human protein kinase D1. PKD1 kinase fluorescence polarization assay. AID 797. Q15139. 200,000 compounds, 0.056% hits. inhibition, %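 (about 10 µM by stock and volumes)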;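 active = inhibition of 50% or more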;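 also: controls were vehicle for no effect and a reference inhibitor for full effect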
Target sequence (Q15139 whole entry, looked up): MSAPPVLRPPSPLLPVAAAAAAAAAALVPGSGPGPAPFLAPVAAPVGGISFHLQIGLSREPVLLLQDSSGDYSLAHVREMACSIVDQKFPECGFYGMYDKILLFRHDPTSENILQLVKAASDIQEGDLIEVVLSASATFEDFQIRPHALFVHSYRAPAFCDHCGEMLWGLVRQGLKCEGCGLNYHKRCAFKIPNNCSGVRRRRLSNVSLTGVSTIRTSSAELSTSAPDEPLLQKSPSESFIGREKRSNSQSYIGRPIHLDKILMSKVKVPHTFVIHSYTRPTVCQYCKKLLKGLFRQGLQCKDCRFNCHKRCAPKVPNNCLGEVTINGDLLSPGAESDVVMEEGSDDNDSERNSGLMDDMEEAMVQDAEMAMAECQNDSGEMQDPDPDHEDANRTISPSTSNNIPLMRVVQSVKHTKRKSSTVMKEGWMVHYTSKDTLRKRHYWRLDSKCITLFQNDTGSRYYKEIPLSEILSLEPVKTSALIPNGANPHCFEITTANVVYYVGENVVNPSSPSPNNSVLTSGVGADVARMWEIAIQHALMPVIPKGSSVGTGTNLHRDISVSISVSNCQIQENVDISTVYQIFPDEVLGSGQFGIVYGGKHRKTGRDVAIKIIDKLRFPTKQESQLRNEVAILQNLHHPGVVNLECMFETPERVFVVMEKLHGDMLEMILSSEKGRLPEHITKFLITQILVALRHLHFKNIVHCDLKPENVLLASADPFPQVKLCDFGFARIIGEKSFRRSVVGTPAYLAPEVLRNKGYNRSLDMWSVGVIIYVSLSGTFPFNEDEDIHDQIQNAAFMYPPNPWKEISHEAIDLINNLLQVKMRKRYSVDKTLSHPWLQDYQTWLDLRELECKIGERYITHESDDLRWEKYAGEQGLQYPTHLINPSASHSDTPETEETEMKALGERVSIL
Insulin prom inh cell count – second read-out of Insulin prom inh, no call of its own (marks repeat the call); normalized cell count, %; measured here: cell count, toxicity; reference of the scale not given here;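 cells exposed to compound for 48 h; stained nuclei by imaging scaled within each plate; lower means fewer cells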
HSV augment primary fold – further read-out of HSV augment, marked with its call; fold increase; compound at 10 µM; measured here: primary screen fold increase 10 uM; tested in PC3 cells;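 GFP signal in the first replicate; 1 = infected wells without compound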
Active calls of the source: *; i = inactive; ? = inconclusive; . = not tested or not shown.

SMILES	RGS16-Gao HTS	Insulin prom inh	Insulin prom inh cell count	HSV augment	HSV augment primary fold	GALR2 agonist	PKD1 inh
CC(=O)NC(C)c1nc2ccccc2n1C(C)C (stereo unspecified)	101	.	.	i	0.85	-2.8	0
CCOC(=O)C1=C(O)c2ccccc2C(=O)/C1=C\c1ccc(CC)cc1	83	-33	92	?	.	-1.3	-17
CN(C)S(=O)(=O)c1cccc(NC(=S)Nc2cccc3cnccc23)c1	95	.	.	i	0.81	.	.
Cc1ccccc1N1C(=O)C(Cc2ccc(F)cc2)S/C1=C(\C#N)C(N)=O (stereo unspecified)	119	.	.	?	.	.	.
CCOC(=O)CN(C(=O)CSc1nnc(-c2ccncc2)n1CCCN(C)C)c1ccccc1	208	.	.	i	0.78	-1.6	-8
CCOc1ccc(NC(=O)c2ccc3nccnc3c2)cc1	106	.	.	.	.	0.3	3
CS(=O)(=O)C1=C(O)C(=O)N(c2ccccc2)C1c1ccccc1 (stereo unspecified)	103	.	.	i	0.99	-0.7	-5
Clc1ccc(-c2ccc(-c3nn4c(-c5ccco5)nnc4s3)o2)cc1	.	16	109	i	1.2	1.2	3
COc1ccc(OC)c2[nH]c(=O)c(CCNC(=S)NC(C)(C)C)cc12	96	.	.	i	0.95	.	-4
COC(=O)c1ccccc1NC(NC(=O)c1ccco1)C(=O)c1ccc(C)cc1 (stereo unspecified)	104	.	.	i	1	-2.7	-12
CCn1c(CCNC(=O)c2ccc(Cl)cc2)nnc1SCC(=O)NC1CCCC1	15	11	169	i	0.85	-1.9	-4
CCC(=O)c1ccc(OCC(O)Cn2cnc3ccccc32)cc1 (stereo unspecified)	98	.	.	i	0.98	-2.1	-6
COc1ccc(Cl)cc1C(=O)NNC(=O)CSc1nnnn1C	112	-17	65	i	0.92	.	-4
CCCC(=O)OC1CCS(=O)(=O)c2sccc21 (stereo unspecified)	91	24	120	i	0.96	.	-2
COC(=O)C1=C(C)N(c2ccc(F)cc2)/C(=C/c2ccc(O)cc2)C1=O	94	.	.	?	.	.	3
COC(=O)C1C(c2ccc(OC)cc2)Nc2nnc(C(F)(F)F)n2C1(C)O (stereo unspecified)	103	.	.	i	1.1	.	-4
CCC(=O)Nc1ccc(C(=O)CSc2nnc(-c3ccc(NS(=O)(=O)CC)cc3)o2)cc1OC	98	.	.	i	0.9	.	.
Cc1ccc(CN2CCc3c(OCc4ccc(F)cc4)cccc3C2=O)cc1	106	.	.	.	.	-2.3	-3
CC(=O)c1c(C)oc2c1C(=O)c1ccccc1C2=O	108	-4	97	i	0.93	-0.6	-1
CCNc1nc(NC(C)C)nc(Oc2ccc(OCCOc3ccccc3)nn2)n1	95	.	.	i	1.1	-2.5	-8
C=CCc1c(C)nc2ccc(C(=O)OCC)cc2c1Cl	100	.	.	i	1	.	6
COc1ccc(NC(=S)NCCNC(C)=O)cc1	104	.	.	i	0.97	.	-8
CCC1(C)Cc2nc3[nH]c(=S)n(-c4ccccc4)c(=O)c3cc2CO1 (stereo unspecified)	119	26	72	i	1.1	-0.7	-9
CCCN(CC1CC1)C(=O)COC(=O)c1ccc(CNS(=O)(=O)c2ccc(F)c(Cl)c2)cc1	111	31	98	i	1	-0.7	-10
COc1ccc(C(=O)CN2CCN(S(=O)(=O)c3cccc([N+](=O)[O-])c3)CC2)cc1OC	102	11	114	i	0.93	0.0	-2
Cc1c(S(=O)(=O)N2CCCC(C(=O)O)C2)cnn1C (stereo unspecified)	101	27	130	i	1	.	-3
CCOc1ccccc1C(=O)NC1CC2CCCC(C1)N2C1CC1 (stereo unspecified)	106	3	94	i	0.9	-2.1	-1
CC(=O)c1cccc(N(C(=O)c2ccco2)C(C(=O)NC2CCCC2)c2ccncc2)c1 (stereo unspecified)	104	.	.	i	1	-2.0	9
Cc1nn(C2CCS(=O)(=O)C2)c(Cl)c1/C=C/C(=O)OCC(N)=O (stereo unspecified)	99	.	.	i	1.1	.	.
COc1cc([N+](=O)[O-])ccc1NC(=O)CN1CCCC1	97	-14	132	i	0.86	.	-3
COC(=O)c1cc(Sc2cccc(Cl)c2Cl)ccn1	100	0	138	i	0.91	.	0
O=[N+]([O-])c1cccc(-c2nnc(-c3ccccc3)o2)c1	97	.	.	i	0.96	.	-7
O=C(Nc1ccc(S(=O)(=O)Nc2nccs2)cc1)c1cc(-c2ccccc2)nc2ccccc12	132	.	.	i	1.1	-0.8	-2
Cc1sc2nc3ccc(NCc4ccco4)nn3c(=O)c2c1C	91	-13	84	i	0.94	-0.8	1
Cc1ccc(-c2nnc3n2N=C(c2ccc(Br)cc2)CS3)cc1	96	.	.	i	0.89	-0.6	-6
O=C(COC(=O)c1ccncc1)NCCCc1ccccc1	148	-53	129	i	0.92	.	-4

Some of the entries so far, bar-delimited.
Structure | RGS16-Gao HTS | Insulin prom inh | Insulin prom inh cell count | HSV augment | HSV augment primary fold | GALR2 agonist | PKD1 inh
CC(=O)NC(C)c1nc2ccccc2n1C(C)C (stereo unspecified) | 101 | . | . | i | 0.85 | -2.8 | 0
CCOC(=O)C1=C(O)c2ccccc2C(=O)/C1=C\c1ccc(CC)cc1 | 83 | -33 | 92 | ? | . | -1.3 | -17
CN(C)S(=O)(=O)c1cccc(NC(=S)Nc2cccc3cnccc23)c1 | 95 | . | . | i | 0.81 | . | .
Cc1ccccc1N1C(=O)C(Cc2ccc(F)cc2)S/C1=C(\C#N)C(N)=O (stereo unspecified) | 119 | . | . | ? | . | . | .
CCOC(=O)CN(C(=O)CSc1nnc(-c2ccncc2)n1CCCN(C)C)c1ccccc1 | 208 | . | . | i | 0.78 | -1.6 | -8
CCOc1ccc(NC(=O)c2ccc3nccnc3c2)cc1 | 106 | . | . | . | . | 0.3 | 3
CS(=O)(=O)C1=C(O)C(=O)N(c2ccccc2)C1c1ccccc1 (stereo unspecified) | 103 | . | . | i | 0.99 | -0.7 | -5
Clc1ccc(-c2ccc(-c3nn4c(-c5ccco5)nnc4s3)o2)cc1 | . | 16 | 109 | i | 1.2 | 1.2 | 3
COc1ccc(OC)c2[nH]c(=O)c(CCNC(=S)NC(C)(C)C)cc12 | 96 | . | . | i | 0.95 | . | -4
COC(=O)c1ccccc1NC(NC(=O)c1ccco1)C(=O)c1ccc(C)cc1 (stereo unspecified) | 104 | . | . | i | 1 | -2.7 | -12
CCn1c(CCNC(=O)c2ccc(Cl)cc2)nnc1SCC(=O)NC1CCCC1 | 15 | 11 | 169 | i | 0.85 | -1.9 | -4
CCC(=O)c1ccc(OCC(O)Cn2cnc3ccccc32)cc1 (stereo unspecified) | 98 | . | . | i | 0.98 | -2.1 | -6
COc1ccc(Cl)cc1C(=O)NNC(=O)CSc1nnnn1C | 112 | -17 | 65 | i | 0.92 | . | -4
CCCC(=O)OC1CCS(=O)(=O)c2sccc21 (stereo unspecified) | 91 | 24 | 120 | i | 0.96 | . | -2
COC(=O)C1=C(C)N(c2ccc(F)cc2)/C(=C/c2ccc(O)cc2)C1=O | 94 | . | . | ? | . | . | 3

Going on with the list.
SMILES	RGS16-Gao HTS	Insulin prom inh	Insulin prom inh cell count	HSV augment	HSV augment primary fold	GALR2 agonist	PKD1 inh
COc1cccc(OCc2nnc(SCC(=O)NCc3ccco3)n2C)c1	101	37	130	i	0.93	-2.2	-2
O=C(CCCN1C(=O)c2ccccc2C1=O)Oc1ccc(F)cc1	103	-2	121	i	0.98	-2.9	-3
CCOC(=O)c1cccc(NC(=O)CSc2nnc(COc3ccc(Cl)cc3)o2)c1	101	0	105	i	0.92	1.0	-3
O=C(NCN1CCc2ccccc2C1)c1ccccc1	107	.	.	i	0.79	-1.2	5
O=S(=O)(c1ccc(F)cc1)N(CCO)CC(O)Cn1c2ccccc2c2ccccc21 (stereo unspecified)	154	-225	89	i	0.87	0.3	11
CC(CC1CC(C)(C)OC1=O)C(=O)Nc1ccc([N+](=O)[O-])cc1 (stereo unspecified)	98	.	.	i	1.1	0.1	-2
O=C(Nc1cc2c(cc1Cl)OCCO2)c1ccco1	41	-92	118	i	0.86	-1.2	0
COc1ccc(CN2CCCC(C(=O)N3CCCC3)C2)cc1 (stereo unspecified)	98	-6	187	i	0.84	0.5	0
CC(=O)NC1CCN(C(=O)N2CCCC2)CC1	104	45	64	i	0.98	-0.5	-3
Cc1cc(=O)oc2cc(OC(C)C(=O)Nc3ccc(N4CCOCC4)cc3)ccc12 (stereo unspecified)	108	-13	45	i	1.1	-0.2	-4
O=C(Nc1ncccn1)C1CCCCC1	96	.	.	i	0.86	.	-15
COCCn1c(Cc2ccccc2)nnc1SCC(=O)N1CCCCC1C (stereo unspecified)	103	-5	97	i	0.75	-1.8	7
O=C(CCSc1ccc(Cl)cc1)N1CCOCC1	95	-12	105	i	0.92	-1.2	-9
CCNC(=S)NNC(=O)c1cccnc1	101	7	81	i	0.91	-0.1	-6
Cc1cc(C(F)(F)F)n2ncc(-c3ccccc3)c2n1	97	15	154	i	0.87	-1.3	-4
Cc1ccc(N/C=C2\CCCCC2=O)c(C)c1	99	-17	158	i	1	-1.2	1
Cc1ccccc1Nc1nc(N)nc(COc2ccc(C#N)cc2)n1	110	5	131	i	0.88	.	-4
Cc1cc(NC(=O)C2COc3ccccc3O2)no1 (stereo unspecified)	103	.	.	i	0.93	-2.5	-5
CC1=C(C(=O)Nc2ccccc2F)C(c2cccs2)NC(=S)N1 (stereo unspecified)	104	.	.	i	1.1	.	0
COc1ccc(NC(=O)c2cc([N+](=O)[O-])ccc2N2CCN(C)CC2)cc1	105	.	.	i	1	.	3
Cc1ccc(CN(c2ccc(C(=O)NCc3ccc4c(c3)OCO4)cc2)S(C)(=O)=O)cc1	95	-7	101	i	0.77	-3.4	-2
CN1CCN(C(=S)c2cn(Cc3cccc(F)c3)c3ccccc23)CC1	102	-27	90	i	0.86	.	0
CN1CCN(c2ncccc2S(=O)(=O)N2CCCCC2)CC1	103	-348	39	i	0.93	-0.8	2
CN1C2CCC1CC(OC(=O)c1c[nH]c3ccccc13)C2 (stereo unspecified)	103	.	.	i	0.84	-1.6	-9
Cc1cc(-c2ccccc2)nc2[nH]n(-c3ccccc3)c(=O)c12	103	-357	122	i	0.78	-3.7	0
COc1ccc(OC)c(NC(=O)c2cnn(-c3ccccc3Cl)c2NC(=O)c2ccco2)c1	103	-7	87	i	1.1	0.2	-3
NS(=O)(=O)c1cc2c(cc1Cl)NCNS2(=O)=O	96	-32	103	i	0.83	0.4	-4
CCCOc1ccc(NC(=O)C2CC(=O)N/C(=N/N=C(\C)CCc3ccc4c(c3)OCO4)S2)cc1 (stereo unspecified)	108	.	.	i	1.1	0.0	-2
Cc1ccc2c(c1)C1CN(C)CCC1N2C(=S)NC(=O)c1ccc(Br)cc1 (stereo unspecified)	106	-21	111	i	0.9	.	-5
Cc1sc(NC(=O)c2ccc(Br)s2)c(C(N)=O)c1C	97	-429	36	i	0.92	-2.8	-5
CCCn1c2c(c(O)c(C(=O)Nc3ccc(OC)cc3)c1=O)CCCC2	93	.	.	i	1	-0.5	12
CCCc1nnc(SCC(=O)N2CCCCC2)n1CC1CCCO1 (stereo unspecified)	96	-63	19	i	1.1	-3.1	2
